Beta apoptosis – inhibitors of cytokine-induced beta cell apoptosis, primary screen, luminescence. AID 435005, 2010. INS-1E cytokine-induced death, ATP luminescence, 48 h; percent of positive-control rescue, neutral wells zero. hit rate 0.8% among 300,000. protection from apoptosis, % (test concentration not listed);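 active = all replicates at 75% or more, or half of them and the mean; inconclusive = half reach 75% but not the mean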;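 also: 0% = cytokine-treated negative control wells and 100% = positive control rescue; higher means more ATP so stronger rescue from cytokine killing; wells of about 40 µL received 100 nL stock; the first replicate is given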
T cruzi inh – inhibitors of intracellular T. cruzi growth, primary screen, luminescence, NIH3T3 host cells; T. cruzi beta-gal in NIH3T3, 90 h; AID 1885, 2009; inhibition, % (test concentration not listed); hit rate 1.4% among 300,000;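 active = mean inhibition across valid replicates above about 55%, limit read from the data; inconclusive = mean below that limit but half or more replicates reach it; inactive = mean below it, under half of replicates reach it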;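 also: signal also drops with host cell toxicity which is not excluded here; 0% = plate median of DMSO wells and 100% = zero luminescence signal; higher percent means less beta-gal luminescence so fewer parasites; stock transfer was 50 nL into about 50 µL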
RanGTP-Impb inh – inhibitors of RanGTP-importin-beta interaction, primary screen, biochemical, FRET, CFP-Ran, YFP-importin-beta, homogeneous; cell-free CFP-Ran/YFP-importin-beta FRET ratio; inhibition, % (no concentration beside the values); hit rate 1.1% among 300,000; Ran GTPase (GTP-bound) - importin-beta complex;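 active = most replicates above 15%; inconclusive = exactly half above 15%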;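 also: 0% = DMSO wells and 100% = Ran loaded with GDP instead of GTP; wells of about 40 µL received 100 nL stock; the first replicate is given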
AF4-AF9 inh – inhibitors of AF4 peptide binding to AF9, primary screen, biochemical, AlphaScreen, biotin-AF4 peptide, FLAG-AF9, single point; Protein AF-9 (Homo sapiens), P42568; inhibition, % at 10 µM; hit rate 0.47% among 350,000;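 active = every replicate reaching a set inhibition limit, whatever the replicate mean, cut at about 25% in these data; inconclusive = mean inhibition reaches that limit but some replicates miss it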;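 also: 0% = plate neutral control median and 100% = total signal loss; the record names both 10 and 1 µM as test concentration; the first replicate is given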
Target sequence (P42568 whole entry, looked up): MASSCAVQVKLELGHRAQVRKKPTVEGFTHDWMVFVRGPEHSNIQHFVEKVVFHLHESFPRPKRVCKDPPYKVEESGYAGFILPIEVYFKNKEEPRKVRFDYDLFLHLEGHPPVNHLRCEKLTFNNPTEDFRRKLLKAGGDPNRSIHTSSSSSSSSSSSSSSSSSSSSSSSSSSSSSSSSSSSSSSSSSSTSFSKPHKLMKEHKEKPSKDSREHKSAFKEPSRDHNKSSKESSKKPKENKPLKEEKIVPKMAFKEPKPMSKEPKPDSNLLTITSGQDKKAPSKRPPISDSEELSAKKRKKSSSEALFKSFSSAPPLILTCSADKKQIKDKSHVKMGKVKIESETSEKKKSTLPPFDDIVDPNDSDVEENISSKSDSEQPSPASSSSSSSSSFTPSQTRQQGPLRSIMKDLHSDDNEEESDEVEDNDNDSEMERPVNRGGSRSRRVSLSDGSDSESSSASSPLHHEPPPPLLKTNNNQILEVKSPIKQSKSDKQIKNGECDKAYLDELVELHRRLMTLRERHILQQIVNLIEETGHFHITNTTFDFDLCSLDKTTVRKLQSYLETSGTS
Calb FLC – C. albicans growth inhibition with fluconazole, primary screen, CaCi-2 strain, Alamar Blue fluorescence; C. albicans CaCi-2 (fluconazole-resistant clinical isolate) + fluconazole, 48 h; growth inhibition, % (test concentration not listed); hit rate 0.57% among 300,000; AID 1979, 2009;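 active = most replicates above 75%; inconclusive = exactly half above 75%; inactive = most below 75%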;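 also: all wells also contain fluconazole at 8 µg/ml as a sub-toxic cotreatment; 0% = median of DMSO wells and 100% = median of geldanamycin control wells; wells of about 8 µL received 7.5 nL stock; the first replicate is given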
A1 inh – caspase 3/7 activation in MEF A1-2A-BIM cells, primary screen, A1 inhibitor project, cell-based, luminescence, HTS; Caspase-Glo 3/7 luminescence, 3 h; percent of clofoctol response, vehicle zero; caspase activation, % (concentration not given with the values); hit rate 0.066% among 330,000; AID 2462, 2010;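 active = over half of replicate activation scores above 10%, or exactly half above 10 with the replicate mean above 10; inconclusive = replicate mean below 10 yet half the replicates above 10; inactive = over half of replicates below 10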;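 also: wells of about 30 µL received 50 nL stock; many hits fall short of the cut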
Vif A3G – inhibitors of Vif binding to APOBEC3G peptide, primary screen, biochemical, TR-FRET, GST-Vif 1-94, biotin-A3G peptide, dose response retest (AID 1117319) | Virion infectivity factor (Human immunodeficiency virus type 1 group M subtype B (isolate … | TR-FRET GST-Vif / biotin-A3G peptide binding; higher % means a stronger effect; test concentration not given here; strong numbers were not always called active | inhibition, %; hits with a dose series show IC50 in µM | hit rate 0.57% among 260,000;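 active = above the screen mean plus three standard deviations and confirmed in dose response; inconclusive = results disagree or hit not tested in dose response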;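 also: Vif residues 1-94 fused to GST binding biotinylated APOBEC3G peptide 110-148; 0% = full assay without inhibitor and 100% = GST in place of GST-Vif; retest series ran down from 100 µM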
LANA-H2B inh – blockers of LANA interaction with H2A/H2B – biochemical, FP readout, HTS, primary screen; Protein LANA1 (Human herpesvirus 8 type P (isolate GK18)), Q9QR71; cell-free LANA-H2A/H2B peptide, fluorescence polarization; inhibition, % (concentration not given with the values); hit rate 0.6% among 320,000; in the data active = inhibition mostly above about 10%, no sharp cut-off; inactive = mostly below about 6.7%;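 also: stock transfer was 7.5 nL into about 10 µL; 0% = median of vehicle wells and 100% = median of positive control wells; one replicate is shown; the record names a cut of 25% in any replicate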
An asterisk follows results filed as active; ? = inconclusive; / = no result given.

Second line of a record – Calb FLC	Vif A3G	A1 inh	RanGTP-Impb inh	Beta apoptosis	AF4-AF9 inh	LANA-H2B inh	T cruzi inh
CCOc1ccc(/C=N/n2c(SC)nnc2-c2ccccc2)cc1OCC
  17	-5%	-0.1	1.5	6	/	-7.3	10
Cc1csc(SC(C)C(=O)NCc2ccc3c(c2)OCO3)n1 (stereo not given)
  -25	-13%	-0.5	-3.4	-8	-1.9	-1.4	0
O=C(CCl)Nc1cccc(S(=O)(=O)N2CCCCCC2)c1
  -48	/	0.9	1.4	-9	/	24	8
Cc1cccc[n+]1CC(=O)c1ccc(NC(=O)c2ccccc2)cc1
  6	/	1.8	6.4	-1	0.5	-0.8	-4
CSc1ccc(C(=O)C2CCCN(C(=O)c3nn(C)c(=O)c4ccccc34)C2)cc1 (stereo not given)
  -2	7%	0.3	-1.0	4	-3.2	-6.2	-1
CC(C(=O)Nc1ccccc1C(=O)N1CCCC1)n1nnc2ccccc21 (stereo not given)
  1	5%	1.0	3.1	1	/	-3.1	-6
Cc1ccc(N2C(=O)N(CC(=O)N(C)Cc3ccccc3)C(=O)C2C)cc1 (stereo not given)
  1	17%	1.2	4.5	-1	/	3.0	-12
Cc1csc(NC(=O)CSc2nc(=O)n(CCN(C)C)c3c2CCCC3)n1
  2	2%	0.3	-1.5	-10	-4.8	-3.0	11
COc1cccc(CNC(=O)C(C)n2ccc3cc(S(=O)(=O)N4CCCCCC4)ccc32)c1 (stereo not given)
  -16	/	0.6	0.6	4	-0.5	6.3	11
COCCNC(=O)/C(C#N)=C1\N=C(NC(=O)c2cccs2)c2ccccc21
  5	/	-0.3	1.4	-2	-5.6	-0.3	-15
O=C(O)c1ccc(OCCN2CCCC2=O)cc1
  5	/	0.6	3.9	-1	-21	2.9	-5
C=CCn1c(SCC(=O)CC(=O)OCC)nc2cc(C(=O)N3CCC(C(N)=O)CC3)ccc2c1=O
  -22	2%	-0.1	5.2	-1	-1.6	11	-15
COc1cccc(Cn2c(Oc3ccccc3)nc3c2c(=O)n(C)c(=O)n3C)c1
  8	5%	-0.5	3.9	7	/	-4.4	10
Cn1c(SCc2nc3ccccc3c(=O)[nH]2)nnc1-c1ccco1
  -3	6%	-0.2	-3.8	-4	/	-0.8	-7
CN(c1ccccc1)S(=O)(=O)c1cccc(NC(=O)CSc2nccc(=O)[nH]2)c1
  /	-1%	1.7	/	4	-9.2	3.1	/
CC1CCCCN1C(=O)CSc1nnc2ccccn12 (stereo not given)
  /	/	0.5	/	1	-0.6	-0.6	/
CCN(CC)c1ccc(/C=C2/C(=O)N(c3ccc([N+](=O)[O-])cc3)N=C2N2CCOCC2)cc1
  4	-5%	-0.2	3.9	/	/	0.5	-12
CCCOc1ccc(N2C(=O)CC(N(O)c3ccccc3)C2=O)cc1 (stereo not given)
  -4	-2%	-1.8	0.0	-12	/	4.6	3
FC(F)(F)c1cccc(Cc2noc(CN3CCCC(OCc4ccccn4)C3)n2)c1 (stereo not given)
  34	8%	3.6	-2.2	-9	3.5	-5.7	10
CCOc1ccc(NC(=O)COn2nnc3ccc(S(=O)(=O)N4CCOCC4)cc32)cc1
  ?	-1%	0.6	?	2	2.1	2.6	29
COc1ccc(-n2ccnc(SCC(=O)NC3CCCC3)c2=O)cc1OC
  3	3%	0.4	-1.6	-24	-2.6	/	-3
CCCn1c(=O)[nH]c2ccccc21
  -4	7%	-0.2	-1.1	6	/	1.1	0
Cc1c(O)cc2c(c1O)C(=O)CC(c1ccc(O)cc1)O2 (stereo not given)
  -1	2.7µM*	0.5	3.0	/	-0.2	6.7	11
Cc1cc2c(=O)oc(-c3ccc(Br)cc3)nc2s1
  40	/	-2.1	0.4	0	/	2.4	7
COc1ccc(CN2CCNC(=O)C2CC(=O)NCC2CCOCC2)c(F)c1 (stereo not given)
  1	4%	0.4	-2.8	-5	-2.5	2.7	-15
CC1(C(=O)Nc2nc3ccccc3s2)CC1(Br)Br (stereo not given)
  -10	-3%	-4.5	1.9	9	0.1	4.2	6
C=CCNC(=S)N1CCN(c2ncc3c(=O)c(C(=O)O)cn(CC)c3n2)CC1
  0	8%	1.0	-1.8	-6	/	-6.1	-9
COc1cc(-c2cc(C(=O)Nc3ccc(S(N)(=O)=O)cc3)c3ccccc3n2)cc(OC)c1OC
  12	/	1.3	1.1	4	7.1	0.1	-5
CC(C)(C)OC(=O)CC[C@@H](C(=O)N1CCN(C(=O)OC(C)(C)C)CC1)n1cc(C(Cc2ccc(O)cc2)NC(=O)OC(C)(C)C)nn1 (stereo not given in full)
  35	-9%	-0.4	3.5	6	2.9	-0.1	41
CCCn1c(SCC(=O)NCc2ccc(C)cc2)n[nH]c1=O
  -6	-1%	-0.4	-3.5	/	0.9	-2.5	2
O=C(CN(C(=O)c1csnn1)c1ccc(F)c(Cl)c1)NCc1ccc2c(c1)OCO2
  -4	2%	-0.2	1.1	4	-7.4	-1.3	8
CCCn1cnc2cc(NCc3cccc(OC)c3)ccc21
  31	6%	-0.3	24*	2	9.7	-3.1	-35
CCc1cc2c(SC(C)C(=O)NC3CCCC3)ncnc2s1 (stereo not given)
  /	-9%	-2.0	/	-2	-1.0	5.5	/
COc1cccc(-n2nnc3c(=O)n(Cc4ccc(F)cc4)cnc32)c1
  -27	6%	0.3	0.8	-7	/	7.0	6
O=C(COC(=O)c1ccc(Cl)nc1)Nc1nnc(-c2ccccc2)o1
  3	/	-0.1	2.3	-3	-2.0	-6.6	-1
Cc1nn(Cc2ccccc2Cl)c(C)c1NC(=O)CCCn1nc(C)c([N+](=O)[O-])c1C
  0	5%	0.0	0.5	-5	/	7.6	-4
Cc1ccccc1NC(=O)Cn1nc(C(F)(F)F)cc1C1CC1
  -7	-6%	-0.1	3.5	-10	/	2.6	-1
COCC(C)n1c(C)cc(C(=O)COc2ccc(S(=O)(=O)N3CCOCC3)cc2Cl)c1C (stereo not given)
  /	11%	1.1	/	9	/	0.9	/
O=C1c2ccccc2-c2nnc(-c3ccccc3)cc21
  3	5%	-0.8	-1.6	28	/	8.8	7
CCCNC(=O)COC(=O)c1cc(SC)ccc1Cl
  -1	4%	-0.1	5.5	-1	/	-0.8	10
Cn1c(CNC(=O)CNC(=O)c2cccc(F)c2)cc(=O)n(C)c1=O
  3	1%	-0.2	-2.0	-1	-5.8	1.6	-11
Cc1ccc(S(=O)(=O)N2CCN(C(=O)c3n[nH]c(=O)c4ccccc34)CC2)cc1
  4	/	-0.2	5.8	-5	-3.0	2.9	-14
Cc1cc(C)nc(SCC(=O)OCC(=O)Nc2ccccc2)n1
  -12	/	0.5	9.8	-4	11	-4.5	-2
C/C(=N\NC(=O)CSc1nc2ccccc2s1)c1cccnc1
  -6	/	0.8	-4.4	-2	-4.4	-10.0	1
Cc1cc(C)cc(S(=O)(=O)c2cn(C)c3cc(N4CCN(C)CC4)c(F)cc3c2=O)c1
  -12	/	-0.1	-2.3	-5	-0.5	3.1	-2
COc1ccc(NC(=O)COC(=O)C23CCC(=O)N2c2ccccc2S3)cc1 (stereo not given)
  0	6%	0.2	-1.0	4	/	-3.5	-19
O=C(CNc1cccc(F)c1)N1CCc2ccccc2C1
  -8	-12%	0.9	-1.4	-9	2.4	4.6	9
CN(C(=O)CSc1nnc(-c2ccc(Cl)cc2)n1C)C1CCS(=O)(=O)C1 (stereo not given)
  /	/	-0.9	/	-3	-1.4	-2.5	/
COc1ccccc1NS(=O)(=O)c1cc(NC(=O)CCNC(C)=O)ccc1N1CCCCC1
  /	-4%	0.7	-1.7	-5	4.4	-6.2	1
COCCCN1CC23C=CC(O2)C(C(=O)OC)C3C1=O (stereo not given)
  -2	-3%	-0.2	2.1	-5	/	0.6	-11

The list continues.
Second line of a record – Calb FLC	Vif A3G	A1 inh	RanGTP-Impb inh	Beta apoptosis	AF4-AF9 inh	LANA-H2B inh	T cruzi inh
CCN(CC)c1ccc(/C=N/N2C(=O)c3ccccc3C2=O)cc1
  -3	0%	-1.0	1.1	-5	/	-2.4	0
Cc1ccc(C(=O)NCC(=O)NCCc2ccc(S(N)(=O)=O)cc2)s1
  -5	/	1.0	-0.2	-8	3.4	3.7	-4
CCN(C(=O)CSc1nnc(-c2ccccc2Br)o1)C1CCS(=O)(=O)C1 (stereo not given)
  5	/	-0.5	0.2	-4	1.5	-2.6	-5
CCC(C(=O)OC(C)C(=O)Nc1ccc(Cl)cn1)c1ccccc1 (stereo not given)
  1	/	-0.7	0.3	-1	-1.1	5.4	-1
COc1cccc(NC(=O)CN(C)C(=O)COc2ccccc2Cc2ccccc2)c1
  /	-9%	-0.3	/	-3	-0.2	-5.9	/
CN(C)CCSc1nc(O)c(-c2ccccc2)c(=O)n1-c1ccccc1
  12	9%	1.1	5.8	-4	0.6	-1.5	-5
O=c1sc2ccccc2c(=O)n1Cc1ccccc1F
  5	-8%	-1.6	-4.8	1	-4.6	1.4	13
CCC1(c2ccc(F)cc2)NC(=O)N(CC(=O)NCc2ccc(F)cc2)C1=O (stereo not given)
  3	-2%	1.1	4.0	-6	-0.5	3.3	0
CCC(=O)Nc1ccc(Cl)c(-c2nc3ncccc3o2)c1
  25	19%	-0.2	0.8	/	-5.1	2.3	24
CC1CCCCC12NC(=O)N(CC(=O)c1ccc(Cl)s1)C2=O (stereo not given)
  -3	3%	?	-1.7	-2	-0.5	-0.3	-3
O=C(O)[C@H](Cc1ccccc1)NC(=O)N1CCN(c2cccc(C(F)(F)F)c2)CC1
  22	-2%	-0.3	2.1	-3	3.0	-3.7	0
CCN(CC)c1ccc(C=O)c(OC)c1
  17	-2%	1.0	-2.2	-9	-1.2	-3.3	-1
O=C(CCN=C1NS(=O)(=O)c2ccccc21)OCC(=O)c1ccc(F)cc1
  5	0%	1.3	1.8	0	1.3	-4.8	-10
CCN1c2ccccc2-c2nc3ccccc3n2C1c1cccnc1 (stereo not given)
  -11	17%	-0.6	2.1	7	/	-0.6	17
CC(=O)c1c(C)[nH]c(C(=O)CSc2nnc(N)s2)c1C
  8	1%	1.0	1.0	-6	-1.9	1.9	-12
CCc1ccc(CCC(=O)Nc2ccc(C)cc2C)o1
  -8	9%	0.6	8.5	4	/	-2.9	11
O=C(Cn1nc(-c2ccco2)ccc1=O)Nc1cc(C(F)(F)F)ccc1Cl
  2	/	2.5	1.7	-5	-7.7	-2.3	-3
CCCCn1c(N)c(N(C)C(=O)c2cn(-c3ccccc3)nc2-c2ccccc2)c(=O)[nH]c1=O
  /	-2%	-1.1	/	6	2.1	1.0	/
Cc1ccccc1N(C(=O)CCC(=O)Nc1ccccn1)C(C(=O)NC(C)C)c1ccc(F)cc1 (stereo not given)
  8	/	0.3	-4.3	0	5.4	-0.8	-16
CC(=O)N(c1nc(/C=C\C(=O)O)cs1)c1ccccc1F
  1	-6%	0.0	-4.0	1	-17	-0.5	-2
